UUG fidelity: modulators of yeast start codon fidelity, primary screen, whole organism, S. cerevisiae, single point, plate reader; S. cerevisiae UUG-firefly luciferase reporter, luminescence/redox ratio; activity score, % at 18.7 µM; 350,000 tested, 0.13% active;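 active = replicate mean at a twofold rise or more, about +100% in these data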;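 also: firefly luciferase made from a UUG start codon reports start codon fidelity; reporter light over untreated wells divided by growth signal over untreated wells; some hits fall short of that in this replicate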
* = called active by the depositor. These rows are one share of the data; count on the stated rates, not on these rows.

CO[C@@H]1CN(C)C(=O)c2cc(NC(=O)c3cccc(F)c3)ccc2OC[C@H](C)N(CC2CC2)C[C@H]1C
  UUG fidelity: -8
CO[C@@H]1CN(C)C(=O)c2cc(NC(C)=O)ccc2OC[C@@H](C)N(C(=O)C2CCOCC2)C[C@@H]1C
  UUG fidelity: -3
O=C(CN1CCOCC1)N1CCCCN2[C@@H](CO)[C@H](c3ccc(C#Cc4ccccc4)cc3)[C@@H]2C1
  UUG fidelity: 23
COCC(=O)N1C[C@H](C)[C@@H](OC)CN(C)C(=O)c2cc(NC(=O)Nc3ccccc3)ccc2OC[C@@H]1C
  UUG fidelity: 4
CC=Cc1ccc2n(c1=O)C[C@@H]1[C@@H](CO)[C@H](C(=O)NCCc3cn(C)cn3)N(C(=O)C3CC3)[C@H]21 (mixture of isomers)
  UUG fidelity: -8
CO[C@@H]1CN(C)C(=O)c2ccc(NC(=O)c3ccccn3)cc2OC[C@@H](C)N(C(=O)C2CCCC2)C[C@H]1C
  UUG fidelity: 31
CCNC(=O)C[C@H]1CC[C@@H]2[C@H](COc3ccc(NC(=O)c4ccc(F)c(F)c4)cc3C(=O)N2C)O1
  UUG fidelity: 2
CCNC(=O)[C@@H]1[C@@H](CO)[C@@H]2Cn3c(ccc(C4=CCCCC4)c3=O)[C@@H]2N1Cc1ccccc1F
  UUG fidelity: 16
O=C(Nc1ccc(F)cc1)N1C[C@@H]2[C@H](c3ccccc31)[C@@H](CO)N2C(=O)Cc1ccccc1
  UUG fidelity: 23
C[C@H]1CN([C@@H](C)CO)C(=O)Cc2cc(NC(=O)c3ccncc3)ccc2O[C@@H]1CN(C)Cc1ccc(C(=O)O)cc1
  UUG fidelity: -8
COc1ccc(CN(C)C[C@H]2Oc3ccc(NC(=O)Nc4ccc(F)cc4)cc3CC(=O)N([C@H](C)CO)C[C@H]2C)cc1
  UUG fidelity: 2
COc1ccc(CN(C)C[C@H]2Oc3ccc(NS(=O)(=O)c4ccc(C)cc4)cc3CC(=O)N([C@@H](C)CO)C[C@H]2C)cc1
  UUG fidelity: 7
C[C@H]1CN([C@@H](C)CO)C(=O)c2cccc(NC(=O)Nc3ccccc3)c2O[C@@H]1CN(C)S(=O)(=O)c1ccc(F)cc1
  UUG fidelity: 16
Cc1cccc(-c2ccc([C@@H]3[C@H](CO)N4CCCCN(C(=O)c5ccncc5)C[C@@H]34)cc2)c1
  UUG fidelity: -11
C[C@@H]1CN([C@@H](C)CO)C(=O)c2cc(NC(=O)Nc3cccc4ccccc34)ccc2O[C@H]1CN(C)Cc1ccc(C(=O)Nc2ccccc2N)cc1
  UUG fidelity: -11
C[C@H]1CN([C@@H](C)CO)C(=O)c2cccc(NS(C)(=O)=O)c2O[C@@H]1CN(C)Cc1ccc(Oc2ccccc2)cc1
  UUG fidelity: -2
CO[C@@H]1CN(C)C(=O)c2ccc(NS(=O)(=O)c3ccccc3)cc2OC[C@@H](C)NC[C@@H]1C
  UUG fidelity: -1
CN1C(=O)c2cc(NC(=O)Nc3cccc(Cl)c3)ccc2OC[C@H]2O[C@H](CC(=O)NCCc3ccncc3)CC[C@@H]21
  UUG fidelity: 6
C[C@H]1CN([C@@H](C)CO)C(=O)Cc2cc(NS(=O)(=O)c3ccc(Cl)cc3)ccc2O[C@@H]1CN(C)C(=O)Nc1ccccc1
  UUG fidelity: 7
C[C@@H](O)C#Cc1ccc([C@@H]2[C@H](CO)N3CCCCN(C(=O)c4cccc(F)c4)C[C@@H]23)cc1
  UUG fidelity: 2
C[C@@H]1CN([C@H](C)CO)C(=O)c2cc(NC(=O)Cn3cnnn3)ccc2O[C@@H]1CN(C)C(=O)Nc1cccc2ccccc12
  UUG fidelity: 1
CC(C)NC(=O)Nc1cccc2c1O[C@H](CN(C)Cc1ccc(Oc3ccccc3)cc1)[C@@H](C)CN([C@@H](C)CO)C2=O
  UUG fidelity: 21
C[C@@H]1CN([C@H](C)CO)C(=O)c2cccc(NC(=O)NC3CCCCC3)c2O[C@@H]1CN(C)Cc1ccc(C(=O)Nc2ccccc2N)cc1
  UUG fidelity: -1
CO[C@@H]1CN(C)C(=O)c2cc(NC(=O)Nc3c(C)noc3C)ccc2OC[C@@H](C)N(C(=O)Nc2cccc(Cl)c2)C[C@H]1C
  UUG fidelity: -1
O=C(C[C@H]1CC[C@H]2[C@@H](COC[C@@H](O)CN2S(=O)(=O)c2ccccc2)O1)NCc1ccc2c(c1)OCO2
  UUG fidelity: 12

CN(C)C(=O)[C@H]1[C@H](CO)[C@H]2Cn3c(ccc(C4=CCCCC4)c3=O)[C@H]2N1C(=O)c1ccccc1F
  UUG fidelity: 14
CCNC(=O)C[C@@H]1CC[C@@H]2[C@H](COc3ccc(NC(=O)Nc4ccccc4Cl)cc3C(=O)N2C)O1
  UUG fidelity: 17
O=C(c1ccccc1)N1C[C@@H]2[C@H](c3ccccc31)[C@@H](CO)N2S(=O)(=O)c1ccccc1
  UUG fidelity: -1
Cc1ccc(S(=O)(=O)N(C)C[C@@H]2Oc3ccc(NC(=O)Nc4ccccc4)cc3C(=O)N([C@@H](C)CO)C[C@@H]2C)cc1
  UUG fidelity: 8
O=C(Cc1cccnc1)N1[C@H](CNCC2CCC2)[C@H](c2ccccc2)[C@@H]1CO
  UUG fidelity: 5
O=C(C1CCC1)N1CCCCN2[C@H](C1)[C@H](c1ccc(C#CC3(O)CCCC3)cc1)[C@@H]2CO
  UUG fidelity: 12
C[C@@H]1CN([C@@H](C)CO)C(=O)c2cccc(NS(=O)(=O)c3cccs3)c2O[C@@H]1CN(C)C(=O)Nc1cccc2ccccc12
  UUG fidelity: -8
CO[C@@H]1CN(C)C(=O)c2cc(NC(=O)NC(C)C)ccc2OC[C@H](C)N(Cc2ccc(-c3ccccn3)cc2)C[C@@H]1C
  UUG fidelity: 4
C[C@H](CO)N1C[C@H](C)[C@@H](CN(C)C(=O)Nc2ccc(F)cc2)Oc2ccc(NC(=O)c3ccncc3)cc2CC1=O
  UUG fidelity: -6
CN(C)C(=O)[C@H]1[C@H](CO)[C@H]2Cn3c(ccc(C4=CCCCC4)c3=O)[C@H]2N1Cc1ccc2c(c1)OCO2
  UUG fidelity: 3
O=C(Nc1ccc(Cl)cc1)N1C[C@@H]2[C@H](c3ccccc31)[C@H](CO)N2CC1CCCCC1
  UUG fidelity: -9
COc1cccc(-c2ccc3c(c2)[C@@H]2[C@@H](CCN2C(=O)NC2CCCC2)[C@@H](CO)N3C)c1
  UUG fidelity: -7
CO[C@@H]1CN(C)C(=O)c2ccc(NC(C)=O)cc2OC[C@@H](C)N(C(=O)CN2CCOCC2)C[C@H]1C
  UUG fidelity: -9
COCC(=O)NC[C@@H]1[C@@H](c2ccc(-c3ccccc3)cc2)[C@@H](CO)N1C(C)=O
  UUG fidelity: 0
CCCN1C[C@@H](C)[C@H](OC)CN(C)C(=O)c2cc(NC(=O)c3cccc(F)c3)ccc2OC[C@H]1C
  UUG fidelity: 18
COc1ccc(CN(C)C[C@@H]2Oc3ccc(NS(=O)(=O)c4cn(C)cn4)cc3C(=O)N([C@H](C)CO)C[C@H]2C)cc1
  UUG fidelity: -7
CNC[C@H]1Oc2ccc(NC(=O)NC(C)C)cc2CC(=O)N([C@H](C)CO)C[C@@H]1C
  UUG fidelity: -42
C[C@@H]1CN([C@H](C)CO)C(=O)c2cc(NS(=O)(=O)c3cn(C)cn3)ccc2O[C@H]1CN(C)C(=O)Nc1cccc2ccccc12
  UUG fidelity: 2
C[C@H]1CN([C@@H](C)CO)C(=O)c2cc(NC(=O)Cc3cn(C)c4ccccc34)ccc2O[C@H]1CN(C)CC1CCCCC1
  UUG fidelity: -6
CN(C)C(=O)C[C@@H]1CC[C@H]2[C@H](COc3ccc(NC(=O)Nc4cccc(Cl)c4)cc3C(=O)N2C)O1
  UUG fidelity: 0
CCCNC(=O)C[C@@H]1C[C@@H]2c3cc(NC(=O)c4ccc5c(c4)OCO5)ccc3O[C@@H]2[C@H](CO)O1
  UUG fidelity: -5
CO[C@@H]1CN(C)C(=O)c2ccc(NC(=O)NC(C)C)cc2OC[C@@H](C)N(Cc2ccc(-c3ccccn3)cc2)C[C@H]1C
  UUG fidelity: 2
Cn1cnc(CCNC(=O)C[C@@H]2CC[C@H]3[C@@H](COC[C@H](O)CN3C(=O)Nc3ccc(Cl)cc3)O2)c1
  UUG fidelity: -5
CO[C@@H]1CN(C)C(=O)c2ccc(NC(=O)c3cc(C)on3)cc2OC[C@H](C)N(C(=O)C2CC2)C[C@H]1C
  UUG fidelity: -9
C[C@@H]1CN([C@@H](C)CO)C(=O)c2cc(NS(=O)(=O)c3cccs3)ccc2O[C@H]1CN(C)C
  UUG fidelity: -8

CO[C@@H]1CN(C)C(=O)c2ccc(NC(=O)c3nc4ccccc4s3)cc2OC[C@@H](C)N(Cc2cncnc2)C[C@H]1C
  UUG fidelity: -3
CCC(=O)N1CC[C@H]2[C@H](CO)Nc3ccc(C#Cc4cccnc4)cc3[C@H]21
  UUG fidelity: 6
CC(=O)N1C[C@@H]2[C@H](c3ccccc31)[C@H](CO)N2S(=O)(=O)c1ccccc1
  UUG fidelity: -7
CCC(=O)N(CC)C[C@@H]1[C@@H](c2ccccc2)[C@H](CO)N1C(C)=O
  UUG fidelity: -6
CCC(=O)N1C[C@H]2[C@@H](c3ccccc31)[C@@H](CO)N2C(=O)Nc1ccccc1F
  UUG fidelity: -10
O=C(C[C@@H]1CC[C@@H]2[C@H](COC[C@@H](O)CN2C(=O)C2CCCC2)O1)NCc1ccncc1
  UUG fidelity: 3
COCC(=O)N1[C@H](C(=O)N2CCN(C)CC2)[C@@H](CO)[C@@H]2Cn3c(ccc(C4=CCCCC4)c3=O)[C@@H]21
  UUG fidelity: -4
CCS(=O)(=O)N1CCCCN2[C@H](CO)[C@@H](c3ccc(-c4cccc(C#N)c4)cc3)[C@H]2C1
  UUG fidelity: 15
O=C(C1CCCC1)N1C[C@H]2[C@@H](c3ccccc31)[C@H](CO)N2C(=O)Cc1ccccn1
  UUG fidelity: -8
CC(C)NC(=O)Nc1cccc2c1O[C@H](CN(C)Cc1ccc(Oc3ccccc3)cc1)[C@@H](C)CN([C@H](C)CO)C2=O
  UUG fidelity: 23
Cc1ccccc1S(=O)(=O)N1CCCCN2[C@H](CO)[C@@H](c3ccc(-c4cncnc4)cc3)[C@@H]2C1
  UUG fidelity: 4
C/C=C/c1ccc([C@H]2[C@@H](CO)N(C(=O)Cc3ccncc3)[C@@H]2CNC(C)=O)cc1
  UUG fidelity: -1
CCCC#Cc1ccc([C@H]2[C@@H](CO)N3CCCCN(S(=O)(=O)Cc4ccccc4)C[C@H]23)cc1
  UUG fidelity: 16
O=C(NC[C@@H]1[C@@H](c2ccccc2)[C@@H](CO)N1CC1CCCC1)c1cccnc1
  UUG fidelity: -18
C[C@H]1CN([C@@H](C)CO)C(=O)c2cccc(NS(=O)(=O)c3cn(C)cn3)c2O[C@H]1CN(C)C(=O)Nc1ccc(C(F)(F)F)cc1
  UUG fidelity: 3
O=C(c1ccc(F)cc1)N1CCCCN2[C@@H](CO)[C@H](c3ccc(/C=C/c4ccccc4)cc3)[C@@H]2C1
  UUG fidelity: 13
Cc1cccc(-c2ccc([C@@H]3[C@@H](CO)N4CCCCN(Cc5cncnc5)C[C@@H]34)cc2)c1
  UUG fidelity: -16
C[C@@H]1CN([C@@H](C)CO)C(=O)c2cc(NS(=O)(=O)c3cccs3)ccc2O[C@H]1CN(C)Cc1ccc(C(=O)Nc2ccccc2N)cc1
  UUG fidelity: 11
CCNC(=O)C[C@H]1CC[C@H]2[C@@H](COC[C@H](O)CN2C(=O)c2cccnc2)O1
  UUG fidelity: 4
CCc1csc(N2[C@H](CNCCOC)[C@H](c3ccccc3)[C@@H]2CO)n1
  UUG fidelity: -5
C[C@@H]1CN([C@H](C)CO)C(=O)c2cccc(NC(=O)NC3CCCCC3)c2O[C@H]1CN(C)S(=O)(=O)c1ccccc1
  UUG fidelity: 15
CN(C)C(=O)c1ccc(-c2ccc([C@@H]3[C@@H](CO)N4CCCCN(C(=O)C5CCCC5)C[C@@H]34)cc2)cc1
  UUG fidelity: 12
COc1cccc(-c2ccc([C@H]3[C@H]4CN(C(=O)NC(C)C)CCCCN4[C@H]3CO)cc2)c1
  UUG fidelity: -10
COCC(=O)N1CC[C@H]2[C@H](CO)Nc3ccc(-c4cccc(C#N)c4)cc3[C@H]21
  UUG fidelity: 1
CO[C@@H]1CN(C)C(=O)c2cc(NC(=O)C3CCOCC3)ccc2OC[C@@H](C)N(C(=O)Nc2ccc(C(F)(F)F)cc2)C[C@H]1C
  UUG fidelity: 16

O=S(=O)(c1ccc(F)cc1)N1CCCCN2[C@H](CO)[C@H](c3ccc(C#CC4CC4)cc3)[C@H]2C1
  UUG fidelity: 17
C[C@@H]1CN([C@H](C)CO)C(=O)Cc2cc(NC(=O)Nc3ccc(F)cc3)ccc2O[C@@H]1CN(C)S(C)(=O)=O
  UUG fidelity: 4
CO[C@@H]1CN(C)C(=O)c2cc(NC(=O)C3CCCC3)ccc2OC[C@H](C)N(C)C[C@H]1C
  UUG fidelity: 13
COc1ccc(NC(=O)N(C)C[C@H]2Oc3ccc(NS(C)(=O)=O)cc3C(=O)N([C@@H](C)CO)C[C@@H]2C)cc1
  UUG fidelity: -32
CO[C@@H]1CN(C)C(=O)c2ccc(NC(=O)Nc3ccccc3)cc2OC[C@H](C)N(C(=O)CN(C)C)C[C@@H]1C
  UUG fidelity: -7
O=C(Nc1cccc(Cl)c1)N1C[C@H]2[C@@H](c3ccccc31)[C@@H](CO)N2C(=O)c1ccncc1
  UUG fidelity: 2
O=C(C1CC1)N1CCCCN2[C@H](CO)[C@H](c3ccc(-c4ccncc4)cc3)[C@@H]2C1
  UUG fidelity: -12
C[C@H](CO)N1C[C@H](C)[C@H](CN(C)Cc2ccc3c(c2)OCO3)Oc2c(NC(=O)C3CCCCC3)cccc2C1=O
  UUG fidelity: 13

Screening results deposited in PubChem by Broad Institute.
